High-throughput results (PubChem)
D2 agonist – human D2 receptor agonism in beta-arrestin assay; DiscoveRx PathHunter D2 beta-arrestin, luminescence, 90 min; 100% = 57 uM dopamine signal; P14416; activation, % (concentration not given with the values); hit rate 0.084% among 360,000; AID 624465; in the data active = activation above about 40%; inconclusive = about 15% to 40%; inactive = below about 15%; note: compound concentration not given in the record; the text of the record calls up to 30% inactive
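DiscoveRx PathHunter D2 beta-arrestin cells (2,100/well) attached overnight, then compound-stimulated 90 min at 37 C in HBSS/10 mM HEPES/0.1% Tween-20 buffer; beta-galactosidase complementation read by luminescence after 1 h at ambient temperature. Dopamine 57 uM final (EC100) as control.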
TRPML1 agonist – activates the human TRPML1 channel | Q9GZU1 | TRPML1-expressing cells, Ca2+ dye fluorescence, FDSS; host cell line not named in the record; reference of the full effect not given here | activation, % (test concentration not listed) | hit rate 0.12% among 410,000; in the data active = activation above about 50%; inconclusive = about 30% to 50%; inactive = below about 30%; note: 0% is about no effect; the text of the record puts the active cut at 80%
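Calcium fluorescence on an FDSS kinetic reader gave the read-out. Tet-induced TRPML1-DL cells were plated overnight, dye-loaded (Ca8 with quencher, 45-90 min, room temperature, dark), then read 110 s after compound addition, and again 110 s after 4uM final 54-4 (EC80).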
TRPML1 inh – blocks the human TRPML1 channel; TRPML1-inducible cells, Ca2+ dye fluorescence, FDSS; stronger effect = lower value; inhibition of EC80 agonist-evoked calcium signal; activity change, negative = inhibition, % (concentration not given with the values); hit rate 0.02% among 390,000; AID 624415; Q9GZU1; in the data active means activity change below about -50%; inconclusive means about -30% to -50%; inactive means above about -30%;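 note: stimulus is agonist 54-4 at its EC80 concentration; % is set by controls: 0 for no effect and ±100 for the full control effect; compound concentration not given in the record; the text of the record puts the active cut at -80%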
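Calcium fluorescence in TRPML1-DL cells induced overnight with Tet: a 110 s read after compound pin addition, then a 110 s antagonist read after challenge with 54-4 at 4 uM final (EC80).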
PINK1 expr mod – PINK1 expression modulation; PINK1 immunofluorescence, high-content cytometry, 24 h; Potency, µM (series often up to 76.6 µM), for the others: at the top dose activation (PINK1 increase), actives largely listed as activators; hit rate 0.2% among 410,000; AID 624263; active = well fitted activation curve with a large enough effect; inconclusive = small, poorly fitted or top-dose-only effect; inactive = flat fitted curve, though single readings scatter; cell line not stated here;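 note: potency is the fitted concentration of half-maximal effect; % of control where 0% means no effect; nearly all actives have a fitted effect of over 65% in size; a mitochondrial uncoupler was the plate control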
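PINK1 protein level read as immunofluorescence by microplate cytometer in a fixed, stained stable cell line after 24 h exposure to five compound concentrations, with CCCP as control.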
Six1-Eya2 inh – blocks human Six1 binding to Eya2 | Q15475+O00167 | AlphaScreen GST-Six1/His-Eya2 binding, biochemical; stronger effect = lower value; control for the full effect not named in the record | activity change, % (no concentration beside the values) | hit rate 0.56% among 360,000; in the data active = activity change below about -65%; inconclusive = about -30% to -65%; inactive = above about -30%; note: % is set by controls: 0 for no effect and ±100 for the full control effect; compound concentration not given in the record
Target sequence (O00167 whole entry, looked up): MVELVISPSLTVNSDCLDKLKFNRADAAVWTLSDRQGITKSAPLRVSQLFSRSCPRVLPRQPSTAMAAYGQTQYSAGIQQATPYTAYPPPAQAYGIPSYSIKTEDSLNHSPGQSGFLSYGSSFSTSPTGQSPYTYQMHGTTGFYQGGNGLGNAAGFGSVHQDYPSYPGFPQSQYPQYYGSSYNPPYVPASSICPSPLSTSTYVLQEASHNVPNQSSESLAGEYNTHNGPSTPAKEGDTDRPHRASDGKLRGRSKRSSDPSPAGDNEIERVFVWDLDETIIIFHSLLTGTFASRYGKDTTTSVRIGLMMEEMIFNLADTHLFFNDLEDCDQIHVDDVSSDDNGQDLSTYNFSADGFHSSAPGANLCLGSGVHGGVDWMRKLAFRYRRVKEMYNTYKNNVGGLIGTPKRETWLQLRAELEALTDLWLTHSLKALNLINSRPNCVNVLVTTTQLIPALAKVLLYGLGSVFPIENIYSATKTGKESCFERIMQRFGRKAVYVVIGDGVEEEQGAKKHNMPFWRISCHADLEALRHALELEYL
Target sequence (Q15475 whole entry, looked up): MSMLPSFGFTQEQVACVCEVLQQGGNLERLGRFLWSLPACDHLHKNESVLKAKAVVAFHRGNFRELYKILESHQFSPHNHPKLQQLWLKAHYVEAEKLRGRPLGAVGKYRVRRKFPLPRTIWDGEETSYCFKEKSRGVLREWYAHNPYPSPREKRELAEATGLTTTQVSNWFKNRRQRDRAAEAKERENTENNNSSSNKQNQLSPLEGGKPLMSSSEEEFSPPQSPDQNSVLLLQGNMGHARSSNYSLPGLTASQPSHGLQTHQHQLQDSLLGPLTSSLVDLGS
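AlphaScreen luminescence read after one hour at 37 °C in darkness. Pin-transferred compounds met GST-Six1 and His-Eya2 protein (5X stock 250 nM/500 nM) plus glutathione donor and Ni-chelate acceptor beads (5X, 50 ug/mL).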
D2 potentiator – positive allosteric modulators of human D2 dopamine receptor | P14416 | DiscoveRx D2 beta-arrestin cells, luminescence, 90 min; 100% = 57 uM dopamine signal | potentiation, % (test concentration not listed) | hit rate 0.23% among 360,000 | AID 624464; active = potentiation of 50% or more; inconclusive = 30% to 50%; inactive = 30% or less;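 note: compound concentration not given in the record; tested on top of an EC20 dose of dopamine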
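PathHunter beta-arrestin assay in DiscoveRx D2 cells. Compounds were added with an EC20 of dopamine (50 nM final) for 90 min at 37 deg C. Luminescence was read 1 h after detection reagent, with 57 uM dopamine as the EC100 control.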
The depositor's hits bear a star; ? = inconclusive; . = no result given; [ ] = another dose, or the depositor's remark. An unsorted share of the library. Share with any hit: about 1%.

SMILES	D2 agonist	TRPML1 agonist	TRPML1 inh	PINK1 expr mod	Six1-Eya2 inh	D2 potentiator
COc1ccc(N=Nc2c(C)[nH]c3ccccc23)cc1	0.8	1.1	-5	5.9%	0	-3
Cc1ccc(-c2nc(S(=O)(=O)c3ccccc3)c(SCC(=O)NC3CCCCC3)o2)cc1	.	0.6	-3	-1.0%	.	.
COc1ccc(S(=O)(=O)N2CCCCC2)cc1C(=O)Nc1cc(C)on1	-3.2	-0.7	24	1.0%	2	10
COc1ccc2cnn(-c3ccc(OC(F)(F)F)cc3)c(=O)c2c1OC	-1.7	-0.1	-24	4.4%	2	-14
COc1ccc(CCN2CC(C(=O)N(C)Cc3ccccn3)CCC2=O)cc1 (stereo not given)	-2.6	-0.3	7	2.1%	-5	-1
CCOc1ccccc1N1CC(C(=O)NNC(=O)c2cc(OC)c(OC)c(OC)c2)CC1=O (stereo not given)	0.7	-0.2	-11	0.4%	8	-9
CCc1nnc(NC(=O)C2=CCN(S(=O)(=O)c3ccccc3)CC2)s1	-2.2	-0.9	-14	0.8%	4	-8
COC(=O)CCC(=O)NNC(=O)c1ccc([N+](=O)[O-])cc1	-2.6	0.3	9	0.2%	10	2
Cn1c(=O)c(=O)n(C)c2cc(S(=O)(=O)CCC(=O)N3CCOCC3)ccc21	-2.4	0.2	46	0.0%	5	-6
O=C1OC(N2CCN(C(=O)C3CCCO3)CC2)c2ccccc21 (stereo not given)	2.8	0.9	-12	1.5%	2	55*
CCCC(=O)Oc1cccc(C2NC(=O)c3ccccc3O2)c1 (stereo not given)	-4.1	-0.2	-4	-0.7%	2	-1
O=C(CCN1C(=O)c2ccccc2C1=O)C1=NN[C@@H]2C(=O)N(c3cccc(F)c3)C(=O)[C@H]12	-4.5	0.5	-9	1.8%	4	-8
CCOC(=O)c1ccc(NC(=O)NCCc2ccccc2OC)cc1	1.4	0.2	-5	1.5%	-3	-5
Cc1ccc(CNC(=O)CCS(=O)(=O)c2ccc3nc(C)sc3c2)cc1	-5.0	-0.8	9	3.1%	-1	-4
Cc1ccc(Cl)cc1-n1ncc2c(NCc3ccc(F)cc3)ncnc21	.	26	16	2.3%	.	.
CCS(=O)(=O)c1ccc(-c2cccc(NC(=O)c3ccc(Br)o3)c2)nn1	1.5	0.7	3	8.6%	-5	-20
O=C(Nc1cccc(F)c1)Nc1cnccn1	1.0	0.2	11	-1.5%	1	-9
COc1ccc2[nH]c(=O)c(CNC3CCCCC3)cc2c1	-4.9	-0.2	11	0.9%	-19	-32
O=C(COC(=O)Cn1[nH]c(=O)c2ccccc2c1=O)Nc1ncc(Cl)cc1Cl	-1.2	-0.4	2	4.7%	-1	-13
Cc1cc(=O)[nH]c(N/N=C/c2c(C)nn(-c3ccccc3Cl)c2Cl)n1	0.7	-0.2	2	-0.2%	1	0
COc1ccc(-c2ccc(C(=S)N3CCN(C(C)=O)CC3)o2)cc1	-1.1	0.0	-24	-2.5%[38.3 µM]	-12	-5
O=C(Nc1cccc(F)c1)/C(=C\c1ccco1)NC(=O)c1cccs1	-2.3	1.5	-10	-2.3%	-4	15
CC1CN(c2ccc([N+](=O)[O-])cc2F)CCN1C(=O)c1ccco1 (stereo not given)	-0.4	2.0	10	-2.5%	-7	-7
CC1CN(Cc2nc3ccccc3c(=O)[nH]2)CC(C)O1 (stereo not given)	-5.5	0.0	-1	3.4%	-2	-5
CCOc1ccc(N(CC(=O)Nc2cccc(OC)c2)S(C)(=O)=O)cc1	1.0	-0.4	-2	2.9%	-1	-3
O=C(Nc1ccc(Cl)cc1N1CCOCC1)C1CCCO1 (stereo not given)	5.1	-0.2	20	-0.7%	6	1
Cc1nn(CC(=O)NC(C)c2ccccc2)c(=O)c2ccccc12 (stereo not given)	-4.6	1.0	-4	-0.5%	3	-5
CC(C)NC(=O)c1csc(COCCO)n1	-4.2	-0.4	.	0.9%	9	-6
CCCN(CCC)C(=S)NC(=O)c1ccc(Cl)cc1Cl	-4.5	-0.7	-5	-0.3%[38.3 µM]	2	-18
C/C(=N/NC(=O)c1cc2ccccc2cc1O)c1ccco1	0.1	0.5	2	1.0%	6	-6

Part of the list above in another layout:
Molecule,D2 agonist,TRPML1 agonist,TRPML1 inh,PINK1 expr mod,Six1-Eya2 inh,D2 potentiator
Cc1cc(=O)[nH]c(N/N=C/c2c(C)nn(-c3ccccc3Cl)c2Cl)n1,0.7,-0.2,2,-0.2%,1,0
COc1ccc(-c2ccc(C(=S)N3CCN(C(C)=O)CC3)o2)cc1,-1.1,0.0,-24,-2.5%[38.3 µM],-12,-5
O=C(Nc1cccc(F)c1)/C(=C\c1ccco1)NC(=O)c1cccs1,-2.3,1.5,-10,-2.3%,-4,15
CC1CN(c2ccc([N+](=O)[O-])cc2F)CCN1C(=O)c1ccco1 (stereo not given),-0.4,2.0,10,-2.5%,-7,-7
CC1CN(Cc2nc3ccccc3c(=O)[nH]2)CC(C)O1 (stereo not given),-5.5,0.0,-1,3.4%,-2,-5
CCOc1ccc(N(CC(=O)Nc2cccc(OC)c2)S(C)(=O)=O)cc1,1.0,-0.4,-2,2.9%,-1,-3
O=C(Nc1ccc(Cl)cc1N1CCOCC1)C1CCCO1 (stereo not given),5.1,-0.2,20,-0.7%,6,1
Cc1nn(CC(=O)NC(C)c2ccccc2)c(=O)c2ccccc12 (stereo not given),-4.6,1.0,-4,-0.5%,3,-5
CC(C)NC(=O)c1csc(COCCO)n1,-4.2,-0.4,.,0.9%,9,-6
CCCN(CCC)C(=S)NC(=O)c1ccc(Cl)cc1Cl,-4.5,-0.7,-5,-0.3%[38.3 µM],2,-18
C/C(=N/NC(=O)c1cc2ccccc2cc1O)c1ccco1,0.1,0.5,2,1.0%,6,-6

Continued.
SMILES	D2 agonist	TRPML1 agonist	TRPML1 inh	PINK1 expr mod	Six1-Eya2 inh	D2 potentiator
CNC(=O)CNC(=O)Nc1ccc(Cl)c(Cl)c1	4.7	-0.3	0	-0.5%	11	-4
O=S(=O)(c1ccc(Cl)s1)N1CCN(c2ncccn2)CC1	-2.2	-0.7	-7	10%[38.3 µM]	1	-3
COc1ccc(CN2C(=O)C(CC(=O)NCCCCc3ccccc3)CC(C(=O)N3CCOCC3)=C2C)cc1 (stereo not given)	-0.6	0.3	-15	-0.4%	14	3
CC1CC(Nc2cccc(O)c2)=CC(=O)O1 (stereo not given)	0.5	-0.3	-7	1.9%	-11	-3
CC(OC(=O)Cc1n[nH]c(=O)c2ccccc12)C(=O)Nc1ccc(Cl)cn1 (stereo not given)	-5.7	-1.0	-5	-1.2%	6	-21
O=C(Nc1ccccc1C(=O)NCc1ccccc1)c1ccco1	-3.8	-1.0	-2	-0.7%	-1	4
COc1ccc(-c2csc3ncnc(NCCO)c23)cc1	-0.5	0.5	42	-1.6%	-23	-14
COc1ccc(CCn2c3c(c(=O)[nH]c2=O)C(NC(=O)c2ccccc2)(C(F)(F)F)C(=O)N3)cc1OC (stereo not given)	.	-0.8	16	0.4%	.	.
CCN1C(=O)[C@H]2[C@@H](c3ccc(-c4ccc(OC)cc4)c(OC)c3)N[C@@](CC(C)C)(C(=O)OC)[C@H]2C1=O	-0.6	0.5	-15	0.4%	0	-5
O=C1c2cccc3cccc(c23)C(=O)N1Cc1cccnc1	-0.9	-0.3	28	8.5%	-23	1
N=C1/C(=C/c2cccn2-c2ccc([N+](=O)[O-])cc2)C(=O)N=C2SC=CN12	-1.1	-0.3	27	?	-10	-4
C[C@H](CO)N1C[C@H](C)[C@@H](CN(C)Cc2ccc(Cl)c(Cl)c2)Oc2c(NS(=O)(=O)c3ccc(F)cc3)cccc2C1=O	3.1	0.4	8	2.6%	-4	-20
O=C(CSc1nnc(-c2ccccc2)o1)N1CCN(c2ccccc2)CC1	-0.7	0.3	0	1.8%[38.3 µM]	4	8
CCCCN(C)S(=O)(=O)c1ccc(NC2=NS(=O)(=O)c3ccccc32)cc1	.	0.8	-12	3.2%	.	.
O=c1c2ccccc2nc(SCc2ccc([N+](=O)[O-])cc2)n1CCCO	7.7	1.6	30	3.0%	-14	-9
O=C(c1cccnc1)N1c2ccccc2Sc2ccccc21	-3.1	2.2	-7	0.8%	-5	0
CN(C)c1ccc(-c2nnc3n(Cc4ccccc4)c(=O)c4ccccc4n23)cc1	.	-1.4	-4	-0.8%	.	.
Cc1ccc(S(=O)(=O)N(C)C)cc1NC(=O)COC(=O)C1COc2ccccc2O1 (stereo not given)	2.8	0.6	10	2.9%	-2	1
O=C(N/N=C/c1cccc(Br)c1)c1ccc(N2CCCC2=O)cc1	-9.4	-1.0	16	14%	8	-8
Cc1ccc2oc(=O)c(S(=O)(=O)c3ccc(C(C)(C)C)cc3)cc2c1	.	0.3	3	0.7%	.	.
Cc1nnc(SCC(=O)N2CCCCC2)s1	0.7	1.7	-2	4.1%[38.3 µM]	5	-6
O=C(CCC1CCCN(Cc2cccc3c2OCO3)C1)NCc1ccc(F)c(F)c1 (stereo not given)	-4.3	1.3	31	-1.0%	-4	-5
COc1cccc([C@@H]2CC=C(C(=O)O)[C@H](c3ccccc3F)N2S(=O)(=O)c2ccc(C)cc2)c1	1.0	-0.1	-12	0.5%	5	-4
O=C(COC(=O)C1CC1)Nc1ccc(Cl)cc1Cl	-1.7	-0.4	3	3.3%	0	6
COc1ccc(Cn2ccnc2SCC(=O)Nc2ccc(F)cc2F)cc1	-2.3	-1.0	25	0.5%	-18	-12
COCCNC(=S)N/N=C(\C)c1ccc(O)cc1	9.2	1.1	-1	1.2%	-5	-11
CCc1nnc(NC(=O)CSc2nnc(CNc3ccc(C)cc3)n2C)s1	-2.0	1.1	13	1.1%	6	-11
Cc1ccc(COc2ccc3c(c2)OCO3)cc1	-2.2	0.1	1	0.2%	-27	2
Clc1cccc(-c2ccc(CNCCCN3CCOCC3)o2)c1	-2.9	0.0	3	2.0%	4	-20
Cc1nnc(CN(C)C(=O)c2cc(COc3ccc(F)cc3Cl)on2)o1	-3.9	-0.1	-6	1.4%	1	0
COc1ccc(CCNC(=O)c2cc3c(=O)n4ccccc4nc3n(CC3CCCO3)c2=N)cc1 (stereo not given)	-3.7	.	.	0.3%	4	-8
Cc1cc(C)c(Cn2c(C)c(CNCCCc3ccccc3)c(C(=O)O)c2C)c(C)c1	.	-0.6	1	2.1%	.	.
O=C(NC1CCCc2ccccc21)c1ccccc1 (stereo not given)	-2.5	1.6	24	3.1%	19	-4
